PostGolgi ctrl: growth inhibition of yeast control strain, primary screen, counter-screen for post-Golgi transport modulator project. inhibition, % at 10 µM. efflux-deficient yeast background strain, growth absorbance A615, 16 h. actives 5% (n = 98,000)
Ecoli WT expand: growth inhibitors of wild-type E. coli, primary screen, strain BW25113, expanded library, OD600. growth inhibition, % at 100 µM. AID 710, 2007. OD600 absorbance. actives 0.15% (n = 98,000);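 active = growth inhibition above about 50% at one test dose, limit read from the data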;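 also: growth measured after 20 h incubation at 37 °C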
PTPN22 inh 2: PTPN22 phosphatase inhibitors, primary screen, biochemical, DiFMUP fluorescence, 2 µM; Tyrosine-protein phosphatase non-receptor type 22 (Homo sapiens), Q9Y2R2; recombinant LYP catalytic domain; inhibition, % at 2 µM; actives 0.21% (n = 96,000);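 active = inhibition at 2 µM at or above a set limit, the screen mean plus 3 SD, cut at about 24% in these data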;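 also: 0% = DMSO with enzyme and 100% = enzyme fully blocked by orthovanadate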
PTK2B oligo ant: antagonists of Pyk2 self-association, primary screen, Q293 cells, FERM NanoBiT luminescence, HTS; Protein-tyrosine kinase 2-beta (Homo sapiens), Q14289; stronger effect = lower value; actives 0.83% (n = 99,000); z-score (the deposit names both 25 µM and 10 µM);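 active = Z-score of -3 or lower, scaled per plate to the spread of control and sample wells; inactive = z-score above -3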;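 also: negative z-score means lost luminescence so less FERM oligomerization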
Target sequence (Q14289 whole entry, looked up): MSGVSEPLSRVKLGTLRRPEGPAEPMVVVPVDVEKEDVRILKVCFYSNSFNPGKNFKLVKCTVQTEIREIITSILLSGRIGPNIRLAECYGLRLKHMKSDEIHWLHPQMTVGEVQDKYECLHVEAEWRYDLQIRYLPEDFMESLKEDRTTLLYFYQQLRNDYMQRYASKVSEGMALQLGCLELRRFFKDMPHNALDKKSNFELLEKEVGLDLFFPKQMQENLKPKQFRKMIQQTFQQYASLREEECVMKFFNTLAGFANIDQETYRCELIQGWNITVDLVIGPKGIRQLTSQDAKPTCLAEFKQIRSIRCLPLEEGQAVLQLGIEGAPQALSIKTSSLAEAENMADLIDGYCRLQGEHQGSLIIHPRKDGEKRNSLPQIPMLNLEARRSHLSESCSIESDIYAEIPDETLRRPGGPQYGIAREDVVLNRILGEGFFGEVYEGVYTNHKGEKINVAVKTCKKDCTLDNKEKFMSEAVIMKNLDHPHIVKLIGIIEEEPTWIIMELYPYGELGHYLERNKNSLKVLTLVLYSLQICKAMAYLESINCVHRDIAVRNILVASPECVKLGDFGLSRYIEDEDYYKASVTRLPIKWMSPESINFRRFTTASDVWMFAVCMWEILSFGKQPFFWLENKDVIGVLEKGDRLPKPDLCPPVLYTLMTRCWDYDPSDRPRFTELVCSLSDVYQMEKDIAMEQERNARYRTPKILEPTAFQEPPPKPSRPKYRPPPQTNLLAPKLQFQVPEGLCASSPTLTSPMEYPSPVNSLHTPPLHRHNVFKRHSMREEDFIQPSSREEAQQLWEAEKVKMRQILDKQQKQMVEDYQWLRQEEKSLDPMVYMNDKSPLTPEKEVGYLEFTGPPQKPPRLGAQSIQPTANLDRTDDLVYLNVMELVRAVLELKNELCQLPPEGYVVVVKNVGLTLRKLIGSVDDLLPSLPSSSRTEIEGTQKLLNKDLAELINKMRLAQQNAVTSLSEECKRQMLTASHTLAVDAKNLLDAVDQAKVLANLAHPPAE
PostGolgi yeast: phenotypic screen on post-Golgi transport, primary screen; post-Golgi transport phenotypic cell assay; inhibition, % at 10 µM; actives 0.9% (n = 98,000);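 also: yeast cells grown in 1536-well plates; yeast grown about 18 h at 30C before absorbance read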
PTPN22 act: LYP phosphatase activators, primary screen, biochemical, DiFMUP fluorescence, 2 µM | actives 0.11% (n = 96,000) | Tyrosine-protein phosphatase non-receptor type 22 (Homo sapiens), Q9Y2R2 | recombinant LYP; 0 = plate median, 100 = signal doubled | AID 697, 2007 | activation, % at 2 µM;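 active = activation at 2 µM above a set limit, the mean plus 5 SD, cut at about 37% in these data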
hDAT+cocaine: changed hDAT dopamine uptake under cocaine IC80, either direction, primary screen, cocaine antagonist project, cell-based, LLC-PK1 hDAT, [14C]-dopamine uptake, MLSMR; Sodium-dependent dopamine transporter (Homo sapiens), Q01959; LLC-PK1 hDAT cells, [14C]-dopamine uptake with cocaine IC80; actives deviate in either direction; B-score at 10 µM; actives 1.3% (n = 110,000);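 active = Z score or B-score, a plate-position-corrected score, falls beyond the plate's 99.7% confidence bounds, in either direction; inactive = both scores lie inside the 99.7% bounds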;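 also: scored against the spread of the other compound wells on the same plate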
* hit, by the source's call; · = no result given. Rule as the data show it, unless noted: active = inhibition above about 30%; inactive = the rest.

1: CCOc1ccccc1/C=N/NC(=O)Cc1csc(Nc2cccc(C(F)(F)F)c2)n1
2: O=C(O)COc1ccc(-c2nccc(-c3cccs3)n2)cc1
3: Cc1cc(C)cc(N(C(=O)c2csnn2)C(C(=O)NC(C)(C)C)c2cccs2)c1 (stereo not given)
4: O=C(Cc1ccc(Cl)cc1)N1CCN(C(=O)c2ccco2)CC1
5: Cc1ccc(-c2nnc(SCC(=O)NNC(=O)COc3cccc(C)c3)n2C)cc1
6: Cc1[nH]c(=O)c(C(=O)/C=C/c2ccccc2F)c2c1CCCC2
compound no.	1	2	3	4	5	6
PostGolgi ctrl	7	0	4	11	5	30*
Ecoli WT expand	-2	-2	-8	0	-3	-1
PTPN22 inh 2	-2	1	8	6	8	-16
PTK2B oligo ant	-0.17	·	-0.47	0.98	1	-2.5
PostGolgi yeast	2	-10	4	7	1	3
PTPN22 act	6	2	-4	-3	-6	19
hDAT+cocaine	0.32	·	-0.32	-0.58	-0.081	-0.57

7: Clc1ccc(CCNc2nc3ccccc3s2)cc1
8: CCCN(CCC)CCNC(=O)C1CCCN(S(=O)(=O)c2ccc3c(c2)oc(=O)n3C)C1 (stereo not given)
9: CCOc1ccc2c(=O)c(Oc3ccccc3)c(C)oc2c1
10: CCOC(=O)C1CCCN(C(=O)C2CCN(S(=O)(=O)CC)CC2)C1 (stereo not given)
11: COc1ccc(-c2c(C)n([O-])c3c([n+]2=O)CCCC3)cc1
12: Cc1cnn(-c2cc(N/N=C/c3ccccc3Cl)ncn2)c1
compound no.	7	8	9	10	11	12
PostGolgi ctrl	8	-1	14	12	21	11
Ecoli WT expand	-3	-1	-8	-1	4	1
PTPN22 inh 2	0	1	2	-6	10	8
PTK2B oligo ant	-0.03	1.4	-1.2	1.7	-0.53	0.25
PostGolgi yeast	-7	4	-3	5	13	-7
PTPN22 act	0	-2	4	4	-8	-4
hDAT+cocaine	-0.8	-0.77	·	-0.52	-0.75	-0.61

13: CC(C)(O)c1cn(-c2nonc2N)nn1
14: Cc1ccc(CSc2nc3ccccc3cc2C=O)cc1
15: Cc1cc(OC(C)C)nc(NCc2ccccc2)n1
16: CCN(CC)CCOc1ccc2c(c1)C(=NO)c1cc(OCCN(CC)CC)ccc1-2
17: CC1CN/C(=C\C(=O)c2ccccc2)C(=O)N1 (stereo not given)
18: c1ccc(-c2n[nH]c(-c3ccccc3)c2-c2nc3ccccc3[nH]2)cc1
compound no.	13	14	15	16	17	18
PostGolgi ctrl	8	38*	15	3	13	13
Ecoli WT expand	0	5	15	4	-2	1
PTPN22 inh 2	4	-4	7	-2	4	-4
PTK2B oligo ant	0.19	-0.18	-0.98	0.72	0.46	-0.88
PostGolgi yeast	-3	75*	2	-8	11	8
PTPN22 act	-4	0	-6	4	-2	7
hDAT+cocaine	-0.67	0.52	0.29	-0.037	0.81	1.7

19: CCN(CC)S(=O)(=O)c1ccc2c(c1)nc(CCC(=O)Nc1cccc(C(F)(F)F)c1)n2CC
20: CCCCn1nc2cc(C(=O)NCc3ccc(OC)cc3)ccc2c1OCC
21: C/C(CC(=O)Nc1cccc2c1CCCC2)=N\NC(=O)c1ccccc1N
22: CC(C)C(=O)N1CCN(C2=NS(=O)(=O)c3ccccc32)CC1
23: CCOC(=O)C(/C(N)=N/C(=O)Nc1ccccc1)=C(\C)O
24: COC(=O)C1=COC(C)C2CN3CCc4c([nH]c5ccccc45)C3CC12 (stereo not given)
compound no.	19	20	21	22	23	24
PostGolgi ctrl	19	1	32*	7	4	-1
Ecoli WT expand	-9	9	-1	-8	4	-3
PTPN22 inh 2	5	-3	0	-23	-2	2
PTK2B oligo ant	-0.57	·	0.56	0.54	0.69	·
PostGolgi yeast	0	-4	17	1	6	-3
PTPN22 act	-3	8	2	19	1	-5
hDAT+cocaine	0.018	0.05	1.1	0.011	0.0032	-0.58

25: Cc1cc(C)c(C#N)c(SCC(=O)C(C)(C)C)n1
26: COc1ccc(-c2c(C)nn(Cc3ccccc3)c2N)cc1
27: COc1ccc(/C=C/c2ccncc2)cc1
28: Cc1cccnc1NC(=S)NC(=O)c1cccs1
29: CC(C)CC(=O)N1CCC(O)(CS(=O)(=O)Cc2ccccc2)CC1
30: O=C(/C=N/O)Nc1ccccc1
compound no.	25	26	27	28	29	30
PostGolgi ctrl	-2	42*	9	0	13	4
Ecoli WT expand	10	-2	12	0	-1	2
PTPN22 inh 2	-5	3	6	8	7	-1
PTK2B oligo ant	0.01	-0.57	-0.41	0.74	3	1
PostGolgi yeast	-20	11	5	-5	14	10
PTPN22 act	7	0	-4	-4	-3	1
hDAT+cocaine	-0.21	0.8	0.53	-0.1	-1.6	0.17

31: CC1CCCN(C(C(=O)Nc2ccc3c(c2)OCCO3)c2ccccc2)C1 (stereo not given)
32: Cc1ccccc1C(=O)Nc1ccccc1-c1nnn(CC(=O)Nc2ccc3c(c2)OCCO3)n1
33: COc1ccc(/C=C2\NC(=S)N(CC3CCCO3)C2=O)c(OC)c1 (stereo not given)
34: CCOC(=O)CC(=O)CSc1nc(-c2ccccc2)cc(-c2ccc(Cl)cc2)c1C#N
35: CCOC(=O)C1=C(COc2ccc(F)cc2Cl)NC(=O)NC1c1cc(C)ccc1C (stereo not given)
36: CCOC(=O)Cc1csc(NC(=S)NC(=O)c2ccc(F)cc2)n1
compound no.	31	32	33	34	35	36
PostGolgi ctrl	12	6	15	3	30*	41*
Ecoli WT expand	0	-1	-2	-6	-9	-14
PTPN22 inh 2	11	6	0	-12	-3	8
PTK2B oligo ant	-1.1	-2.8	-1.9	-0.86	-1	1.5
PostGolgi yeast	-6	-3	2	4	1	4
PTPN22 act	-13	-3	4	16	5	-6
hDAT+cocaine	0.47	0.028	1.4	-1.2	-1.2	·

37: CN1C(=O)C(CC(N)=O)N(NC(=O)c2ccc(Cl)cc2)C1=S (stereo not given)
38: Brc1ccc(-c2csc(N3CCc4ccccc4C3)n2)cc1
39: O=C(CNC(=O)/C(=C\c1ccccc1)NC(=O)c1ccc(Br)cc1)OCc1ccccc1
40: COC(=O)COc1ccc(Cl)cc1C1Nc2ccccc2C(=O)N1c1ccc(OC)cc1 (stereo not given)
41: O=C(NC(NC(=S)Nc1ccccc1)C(Cl)(Cl)Cl)c1cccc(Cl)c1 (stereo not given)
42: CCCS(=O)(=O)N1CCC(C(=O)NCCCOC)CC1
compound no.	37	38	39	40	41	42
PostGolgi ctrl	-3	6	-6	7	19	12
Ecoli WT expand	6	-18	-6	-7	2	1
PTPN22 inh 2	-1	2	-4	2	0	-2
PTK2B oligo ant	0.53	1.2	-0.4	-0.99	-2.7	-0.09
PostGolgi yeast	-12	-6	-3	-4	7	-3
PTPN22 act	4	1	10	0	4	1
hDAT+cocaine	0.68	0.66	0.32	0.34	-0.24	-0.092

43: CCc1ccc(-c2cc(C(F)(F)F)n3nc(C(=O)Nc4cnn(Cc5ccccc5C)c4)cc3n2)s1
44: Cc1nc(-n2nnc3cc(C)c(C)cc32)c2c3c(sc2n1)CCCC3
45: Cc1ccc(NC(=O)CSc2nc(O)cc(=O)n2C)cc1
46: O=C(O)c1cccc(C(=O)O)n1
47: Cc1cccc(-n2nnc(C(=O)NCc3ccco3)c2N)c1
48: CCOC(=O)c1cnn(-c2ccccc2)c1NC(=O)C(F)(F)C(F)(F)C(F)(F)F
compound no.	43	44	45	46	47	48
PostGolgi ctrl	-4	6	11	-6	-3	-5
Ecoli WT expand	-8	-4	5	6	7	0
PTPN22 inh 2	2	16	-2	-3	-7	7
PTK2B oligo ant	0.5	-0.45	-0.2	·	-0.29	0.17
PostGolgi yeast	-26	1	0	-8	-1	-5
PTPN22 act	2	-14	-2	0	7	-7
hDAT+cocaine	0.19	0.19	0.86	-0.19	0.92	-1.5

49: Cc1nnc(SCC(=O)NCc2cccs2)[nH]c1=O
50: COC(=O)CNC(=O)/C=C/c1ccc(OC)cc1
51: O=C1c2ccccc2CCC12N=NCC2c1ccccc1 (stereo not given)
52: Cc1[nH][nH]c(=O)c1C(c1c(C)[nH][nH]c1=O)c1cn(Cc2cccc3ccccc23)c2ccccc12
53: COc1ccc2c(C)cc(SCC(=O)c3ccc4c(c3)OCO4)nc2c1
54: CC(c1ccc(F)cc1)n1c(-c2ccc3ccccc3n2)n[nH]c1=S (stereo not given)
compound no.	49	50	51	52	53	54
PostGolgi ctrl	-12	7	15	25	4	36*
Ecoli WT expand	3	5	8	-3	-18	4
PTPN22 inh 2	-4	0	9	10	0	9
PTK2B oligo ant	0.22	0.31	-0.47	-0.78	-1.4	-0.79
PostGolgi yeast	2	-4	2	6	-7	0
PTPN22 act	1	4	-6	-5	2	-7
hDAT+cocaine	-0.12	0.24	1.1	-0.4	-0.27	-0.042

55: CCOC(=O)C1CCN(C(=O)c2cccnc2Cl)CC1
56: COC(=O)C1(O)CC(C(C)C)=NN1C(=O)c1ccc(Cl)cc1 (stereo not given)
57: O=C(Cn1c(SCC(=O)N2CCc3ccccc3C2)nc2ccccc21)NC1CCCC1
58: CC(=O)Nc1cccc(N2C(=O)CCC2=O)c1
59: CCOC(=O)c1cnc2c(N=Nc3ccccc3)c(N)nn2c1N
60: O=S(=O)(Cc1ccc(Cl)cc1)c1ccccc1-c1nnc(-c2ccc(Cl)cc2)o1
compound no.	55	56	57	58	59	60
PostGolgi ctrl	6	-1	19	38*	3	29
Ecoli WT expand	4	3	-4	1	-2	-17
PTPN22 inh 2	-7	9	-16	-12	8	1
PTK2B oligo ant	0	0.25	0.97	-0.28	1.1	-0.19
PostGolgi yeast	9	27	14	-11	4	10
PTPN22 act	9	-6	19	14	-3	1
hDAT+cocaine	0.021	·	-0.034	0.41	-0.4	·

61: Cc1ccc(C)c(NC(=S)NNC(=O)c2ccc(Br)o2)c1
62: Cc1ccc(Sc2cc(N3CCOCC3)nc(-c3ccccc3)n2)cc1
63: COc1ccc(-c2nn(-c3ccccc3)cc2/C=N/NC(=O)c2ccc(Br)o2)cc1
64: CC(C)NC(=O)CC(=O)N/N=C/c1ccc(Br)cc1
65: Cc1cccc(C(=O)Nc2cccc(OC(=O)c3cccc(C)c3)c2)c1
66: CC(=O)c1c(C)[nH]c(C(=O)N2CCc3ccccc3C2)c1C
compound no.	61	62	63	64	65	66
PostGolgi ctrl	28	17	15	-5	1	6
Ecoli WT expand	4	-9	-11	8	-25	4
PTPN22 inh 2	6	1	15	-5	4	6
PTK2B oligo ant	1	-0.21	-3.1*	0.18	1.1	0.29
PostGolgi yeast	-25	9	1	16	-12	6
PTPN22 act	-2	2	-11	8	0	-8
hDAT+cocaine	·	·	-0.25	0.17	0.052	-0.13

67: CC(=O)C1C(c2cccc(F)c2)NC(=O)NC1(O)C(F)(F)F (stereo not given)
68: CCOC(=O)CC(=O)Nc1ccccc1C(=O)O
69: Cc1ccc(S(=O)(=O)N2CCC(CN3C(=O)c4cccc5cccc(c45)C3=O)CC2)cc1
70: O=[N+]([O-])c1cc(C(F)(F)F)ccc1NCCCCNS(=O)(=O)c1ccc2ccccc2c1
71: CCCCOP(=O)(c1ccc(N(C)C)cc1)C(O)c1cccnc1 (stereo not given)
compound no.	67	68	69	70	71
PostGolgi ctrl	4	4	16	2	9
Ecoli WT expand	-8	3	-13	-4	-11
PTPN22 inh 2	1	-10	-5	14	6
PTK2B oligo ant	·	-0.12	0.04	2.3	0.03
PostGolgi yeast	8	8	16	-5	-6
PTPN22 act	-4	10	7	-10	-9
hDAT+cocaine	·	0.49	1.1	-0.95	-0.31

Exported with values under each structure: entries from further up
Under each structure – PostGolgi ctrl, Ecoli WT expand, PTPN22 inh 2, PTK2B oligo ant, PostGolgi yeast, PTPN22 act, hDAT+cocaine
(68) CCOC(=O)CC(=O)Nc1ccccc1C(=O)O
→ 4, 3, -10, -0.12, 8, 10, 0.49
(67) CC(=O)C1C(c2cccc(F)c2)NC(=O)NC1(O)C(F)(F)F (stereo not given)
→ 4, -8, 1, ·, 8, -4, ·
(69) Cc1ccc(S(=O)(=O)N2CCC(CN3C(=O)c4cccc5cccc(c45)C3=O)CC2)cc1
→ 16, -13, -5, 0.04, 16, 7, 1.1
(71) CCCCOP(=O)(c1ccc(N(C)C)cc1)C(O)c1cccnc1 (stereo not given)
→ 9, -11, 6, 0.03, -6, -9, -0.31

Assay outcomes: PubChem BioAssay, several laboratories

An excerpt, so the mix of outcomes need not match the whole.
